Screening results (PubChem)
Marburg entry inh: qHTS for inhibitors of binding or entry into cells for Marburg Virus; Marburg virus pseudotyped entry inhibition, cell reporter; control for the full effect not named in the record; about a third of the inactives were read at about 46 µM; Potency, µM (top dose mostly 37.8 µM), inactives show at the highest dose activity change, negative = inhibition, hits mostly inhibitors; 300,000 tested, 1.8% active; AID 540276, 2011; active = well fitted inhibition curve with a large enough effect; inconclusive = small, poorly fitted or top-dose-only effect, or effect the other way; inactive = flat fitted curve, though single readings scatter; tested in HEK293 cells; about a fifth of its hits are not listed in these tables; also: % is scaled to controls: 0 for no effect and ±100 for the full control effect; luciferase read-out
Cruzain noTriton: qHTS Assay for Promiscuous and Specific Inhibitors of Cruzain (without detergent). Cruzipain (Trypanosoma cruzi), P25779. purified cruzain, Z-FR-AMC fluorescence, no detergent. Potency, µM, inactives show max response, negative = inhibition, hits mostly inhibitors. 200,000 tested, 2.3% active. AID 1476, 2009; active = well fitted curve in the direction sought with a large enough effect; inconclusive = small, poorly fitted or top-dose-only effect, or another doubt; inactive = no such curve, though single readings can be large; an effect the other way counts as inactive or inconclusive;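 also: plate controls were enzyme without inhibitor for no effect and buffer without enzyme for full effect; nearly all actives have a fitted effect of over 40% in size; top concentration of the series not given in the record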
Target sequence (P25779 123-467 limits assumed): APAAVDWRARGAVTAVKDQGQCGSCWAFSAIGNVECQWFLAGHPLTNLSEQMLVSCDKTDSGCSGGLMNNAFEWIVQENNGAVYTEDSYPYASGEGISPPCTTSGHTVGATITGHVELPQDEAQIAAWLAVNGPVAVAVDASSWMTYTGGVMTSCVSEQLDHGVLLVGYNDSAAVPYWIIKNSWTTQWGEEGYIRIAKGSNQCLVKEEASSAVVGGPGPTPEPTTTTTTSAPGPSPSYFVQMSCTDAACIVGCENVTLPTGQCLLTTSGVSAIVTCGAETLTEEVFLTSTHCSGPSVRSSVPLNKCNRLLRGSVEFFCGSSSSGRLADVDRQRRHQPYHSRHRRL
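Purified cruzain at 1.5 nM, pre-incubated 15 min with compound at room temperature in 100 mM sodium acetate pH 5.5, 5 mM DTT, 0.00005% Triton X-100. Reaction started with 2 uM Z-FR-AMC; AMC fluorescence increase over 60 s gives rate.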
SARS PLpro yeast: qHTS of Yeast-based Assay for SARS-CoV PLP; S. cerevisiae expressing SARS-CoV PLpro, growth rescue; control for the full effect not named in the record; 330,000 tested, 0.19% active; Potency, µM (top dose mostly 32.9 µM), without a hit: top-dose activity, positive = growth rescue; also: 0% is about no effect; nearly all actives have a fitted effect of over 55% in size; growth read by luminescence after 48 h
RE007 growth inh: qHTS Assay for Inhibitors of the HIV-1 protein Vpr. S. pombe RE007 Vpr strain, BacTiter-Glo ATP luminescence, 24 h; control for the full effect not named in the record. Potency, µM (series often up to 92.2 µM), for inactives: at the top dose activity change, negative = less growth. 360,000 tested, 0.21% active. AID 651644, 2012; active = well fitted falling curve with a large enough effect; inconclusive = small, poorly fitted or top-dose-only effect; inactive = no such curve, though single readings can be large or run the other way;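 also: % is scaled to controls: 0 for no effect and ±100 for the full control effect; nearly all actives have a fitted effect of over 50% in size; the assay follows cell death caused by Vpr and the record does not say whether a fall means rescue or toxicity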
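Fission yeast RE007 carrying one integrated HIV-1 vpr copy, seeded at OD 0.01 in PMG+AL medium with 23 nL pinned compound. Grown 24 h at 30 degrees; viability read by BacTiter-Glo luminescence after 5 min.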
NS1 function inh: qHTS Assay for Inhibitors of Influenza NS1 Protein Function | Potency, µM (titrated, usually from 46.1 µM), for the others: at the top dose activity, positive = more growth | 270,000 tested, 0.4% active | S. cerevisiae slowed by influenza A NS1, growth recovery by OD600; also: actives are rising curves; nearly all actives have a fitted effect of over 50% in size
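Compounds were scored for reversing the slow growth caused by influenza A NS1 in S. cerevisiae, measured by optical density at 600 nm. Assay medium contained 2% galactose at pH 6.0; NS1-free yeast of the same strain were the positive control.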
Cruzain inh Det: qHTS Assay for Promiscuous and Specific Inhibitors of Cruzain (with detergent); Cruzipain (Trypanosoma cruzi), P25779; purified cruzain, Z-FR-AMC fluorescence, 0.01% Triton; Potency, µM, for inactives: max response, negative = inhibition, hits mostly inhibitors; 200,000 tested, 0.43% active; active = well fitted curve in the direction sought with a large enough effect; inconclusive = small, poorly fitted or top-dose-only effect, or another doubt; inactive = no such curve, though single readings can be large; an effect the other way counts as inactive or inconclusive;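 also: plate controls were neutral wells for no effect and buffer without enzyme for full effect; nearly all actives have a fitted effect of over 40% in size; top concentration of the series not given in the record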
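Read-out: AMC fluorescence (360 nm excitation, 450 nm emission), four reads over 2 min, first-to-third difference used. Conditions: cruzain 1.5 nM, Z-FR-AMC 2 uM, pH 5.5 acetate, 5 mM DTT, 0.01% Triton X-100.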
2A StopGo: High Throughput Screening for Foot and Mouth Disease Virus Antivirals; human cells with a luciferase reporter of 2A StopGo recoding; control for the full effect not named in the record; Potency, µM (series often up to 57.9 µM), inactives show at the highest dose signal change, negative = less light; 410,000 tested, 1.2% active; AID 1159524, 2015; active = well fitted falling curve with a large enough effect; inconclusive = small, poorly fitted or top-dose-only effect; inactive = no such curve, though single readings can be large or run the other way; tested in HEK293T cells; also: % is scaled to controls: 0 for no effect and ±100 for the full control effect; nearly all actives have a fitted effect of over 45% in size; luciferase light after 4 h
Lassa entry inh: qHTS for Inhibitors of binding or entry into cells for Lassa Virus; AID 540256, 2011; 300,000 tested, 1.2% active; Lassa virus pseudotype entry inhibition, cell reporter; control for the full effect not named in the record; Potency, µM (doses to about 37.9 µM), for the others: at the highest dose activity change, negative = inhibition, actives largely listed as inhibitors; active means well fitted inhibition curve with a large enough effect; inconclusive means small, poorly fitted or top-dose-only effect, or effect the other way; inactive means flat fitted curve, though single readings scatter; tested in HEK293 cells; also: % is scaled to controls: 0 for no effect and ±100 for the full control effect; nearly all actives have a fitted effect of over 50% in size; luciferase read-out
Numbers without * were called inactive; ? = inconclusive; nt = not tested or not shown; & = joins results of further samples; [ ] = remark or other dose. Unless noted, calls follow the shape of the dose curve; as a rule, active means well fitted rising curve with a large enough effect; inconclusive means small, poorly fitted or top-dose-only effect; inactive means no such curve, though single readings can be large or run the other way. Potency is read from the fitted curve at half-maximal effect.

SMILES | Marburg entry inh | Cruzain noTriton | SARS PLpro yeast | RE007 growth inh | NS1 function inh | Cruzain inh Det | 2A StopGo | Lassa entry inh
COc1ccc(N2CCN(C(=O)CN(C)S(=O)(=O)c3ccc4c(c3)c(=O)n(C)c(=O)n4C)CC2)cc1 | -19%[46.1 µM] | nt | -3% | -13% | nt | nt | ? | -1%
Cc1ccc(S(=O)(=O)N2CCCCC2c2cccnc2)c(C)c1C (stereo not drawn) | nt | nt | -3% | 7% | -10% | nt | ? | nt
COc1ccc(Nc2cc(C)c3ccccc3n2)cc1 | ? | nt | -2% | -23% | nt | nt | 12% | -10%[46.1 µM]
CC(C)CCn1c(O)c(N=Nc2ccccn2)c2ccccc21 | -16% | -10% | -71% | -3% | -26% | -6.9% | -23% | ?
C/C(=N\NC(=O)OC(C)(C)C)c1ccccc1Br | 5%[46.1 µM] | nt | 0% | 25% | 3% | nt | 90%[activator] | 19%
O=S(=O)(c1ccccc1)N1CN2CCN(C2)C1 | ? | -6% | -6% | 1% | -9% | -1.4% | -19% | 12%
COCC(=O)N(C)C1(c2nnnn2CCOC(=O)Nc2cccc3ccccc23)CCCC1 | -1% | 3% | -1% | -10% | 0% | -2.6% | -9% | -1%
Cc1ccc(O)c(CCc2ccc(O)cc2)n1 | 9%[46.1 µM] | nt | 0% | -1% | 10% | nt | -1% | 20%[46.1 µM]
Cc1ccc(S(=O)(=O)N2CCN(C(=O)CCn3nc(C)c(C)c3C)CC2)cc1 | -6%[46.1 µM] | nt | -7% | -8% | -14% | nt | -9% | nt
Cc1c(NC(=O)c2cc(-c3ccc4c(c3)OCO4)on2)c(=O)n(-c2ccccc2)n1C | 2% | -5% | 5% | 1% | 3% | -0.7% | -9% | 3%
CN(C)S(=O)(=O)c1ccc(Cl)c(C(=O)NC2CCN(Cc3ccccc3)C2)c1 (stereo not drawn) | -23%[46.1 µM] | nt | -1% | -7% | -1% | nt | -9% | 2%
Nc1nc(C(F)(F)F)cc(=O)[nH]1 | nt | nt | 1% | 1% | -3% | nt | 1% | nt
O=C(N/N=C/c1cc(Cl)ccc1O)c1ccc(Br)cc1 | ? | ? | ? | 4% | -16% | -10% | 6% | 10µM*
COc1ccc(CCOC(=O)c2cccc(NC(C)=O)c2)cc1 | -15%[46.1 µM] | nt | -5% | -15% | -50% | nt | 3% | -12%[46.1 µM]
CCCCn1c(O)c(C(CC)=NCc2ccc(F)cc2)c(=O)[nH]c1=O | -17% | 13% | -5% | 8% | -5% | -3.5% | ? | ?
NC(=O)c1c(NC(=O)CCCn2cnc([N+](=O)[O-])n2)sc2c1CCCC2 | 3%[46.1 µM] | nt | 0% | -20% | nt | nt | -6% | 20%
COc1ccc(Cc2nnc(NS(=O)(=O)Cc3ccccc3)s2)cc1 | -30% | -1% | -1% | 16% | 7% | -5.0% | -18% | -24%
O=[N+]([O-])c1ccc(N2CCN(c3ccccc3)CC2)cc1 | nt | nt | -7% | -12% | -1% | nt | 12% | nt
C=CCn1c(SCC(=O)NC2CC2)nnc1-c1cccs1 | 3%[46.1 µM] | nt | -3% | -1% | 3% | nt | -5% | -14%[46.1 µM]
CC(=O)Nc1nnc(-c2c(-c3c(Cl)cccc3Cl)noc2C)o1 | 0%[46.1 µM] | nt | 1% | 7% | -3% | nt | -3% | 2%
COc1ccc(-c2cc(C(=O)N/N=C/c3cccnc3)c3ccccc3n2)cc1 | ? | nt | -1% | -18% | -2% | nt | 6% | 10µM*
Cc1cccc(N2C(=O)CSC23C(=O)N(Cc2cccc(F)c2)c2ccccc23)c1 (stereo not drawn) | nt | -17% | nt | nt | nt | -8.0% | 0% | ?
CC(C)Cc1nc2n[nH]c(N)c2c2c1COC(C)(C)C2 | 15% | 6% | -3% | 1% | 7% | 3.4% | -19% | 2%
COc1ccc(NC(=O)CN(C)C(=O)c2cccc(S(=O)(=O)N3CCN(C)CC3)c2)cc1 | 0%[46.1 µM] | nt | 1% | -14% | nt | nt | -17% | 9%
COc1ccc(CCNC2CC(=O)N(CCc3ccc(OC)c(OC)c3)C2=O)cc1 (stereo not drawn) | 2% | -11% | -4% | -7% | -1% | 1.8% | -6% | 4%
COc1cccc(C2Nc3ccc4ccccc4c3C3=C2C(=O)CCC3)c1O (stereo not drawn) | 0% | nt | 3% | -9% | 1% | nt | -7% | 6%
CN1CCN(C(=O)c2cn(-c3ccccc3)nc2-c2cccnc2)CC1 | 5% | 5% | 1% | 2% | 3% | -1.4% | 5% | 2%
Cc1cc(C)nc(OC(C(=O)O)C(OCCc2ccccc2)(c2ccc(F)cc2)c2ccc(F)cc2)n1 (stereo not drawn) | nt | nt | -5% | 4% | ? | nt | -18% | nt
CCCCN(CCCNC(=O)C1CCN(C(=O)c2cc3sccc3n2C)CC1)Cc1ccccc1 | ? | nt | 0% | -4% | -14% | nt | -14% | ?
COC(CNS(=O)(=O)c1cccc2nonc12)OC | -2%[46.1 µM] | nt | 2% | 0% | nt | nt | 16% | 0%
O=c1c(-c2ccc(Cl)cc2)[n+]([O-])c2ccccc2n1OCc1nc2ccccc2[nH]1 | ? | nt | 0% | -19% | -3% | nt | 3% | 3%[46.1 µM]
O=C(CCSCc1ccccc1Cl)NC1CCCCC1 | 28%[46.1 µM] | nt | 0% | 33% | nt | nt | 96%[activator] | 1%
Cc1cccc(NS(=O)(=O)c2cccc3cccnc23)n1 | nt | 13% | 6% | 15% | -3% | 1.0% | 53%[activator] | nt
O=[N+]([O-])c1ccc(Cl)c2cccnc12 | ? | nt | 3% | -12% | nt | nt | -22% | -27%[46.1 µM]
Cc1ccc(N/N=C(\C#N)C(N)=S)c(C)c1 | -1%[46.1 µM] | -15% | -137% | 4% | -56% | -15% | -13% | 10%
Cc1ccc2cc(S(=O)(=O)NCCCC(=O)O)ccc2c1 | 1% | 0% | 5% | 24% | -7% | 2.6% | 14% | -9%
CCSc1nnc(NC(=O)C2(C)Cc3ccccc3C(=O)O2)s1 (stereo not drawn) | 11% | 3% | -5% | -19% | -31% | -0.7% | 7% | 13%
O=C(COC(=O)C12CC3CC(CC(O)(C3)C1)C2)NC12CC3CC(CC(C3)C1)C2 | 11%[46.1 µM] | nt | 1% | -8% | nt | nt | 6% | 2%
CCOC(=O)c1sc2nc(CSc3nc4ccccc4n3CC)[nH]c(=O)c2c1C | 26% | 23% | 1% | 12% | -3% | 0.3% | -10% | -7%
COc1ccc(CCC(=O)N/N=C(\C)c2ccc3c(c2)OCO3)cc1 | 13% | nt | -7% | -7% | -4% | nt | -10% | 0.35µM*
CC(C)NC(=O)Cn1c(SCC(=O)N2CCCCCC2)nc2ccccc21 | ? | -2% | 0% | -9% | -8% | 7.5% | 8% | -6%
CCOC(=O)C1=C(COC(=O)CNS(=O)(=O)c2ccc(C)cc2)NC(=O)NC1C (stereo not drawn) | -2% | nt | 1% | -3% | 4% | nt | -3% | 13%
Cc1ccccc1NC(=O)CSc1nc2ccc(NC(=O)c3ccccc3)cc2s1 | 11%[46.1 µM] | ? | nt | nt | nt | -4.5% | -14% | 7%[46.1 µM]
COc1ccc(C=NNc2ccc([N+](=O)[O-])cn2)cc1 | ? | nt | nt | 1% | nt | nt | 12% | -16%[46.1 µM]
COc1ccc(S(=O)(=O)NCC(c2ccco2)N2CCOCC2)cc1 (stereo not drawn) | 4%&4% | 12% | -4% | -22% | nt | 6.3% | ? | 6%&0%[46.1 µM]
Cc1[nH]n(-c2nc(-c3ccc(Cl)cc3)cs2)c(=O)c1N=Nc1ccc(O)cc1 | ? | nt | 0% | 0% | -2% | nt | 7.9µM* | 11µM*
O=C(OCCN1CCN(c2ncc(C(F)(F)F)cc2Cl)CC1)c1ccc(Cl)cc1 | 11% | ? | -8% | -19% | 1% | -4.9% | -6% | -2%
Clc1ccc(CCNc2ncnc3c2nnn3Cc2ccccc2)cc1 | 1% | nt | 3% | 5% | 10% | nt | -19% | ?
O=C(c1ccc([N+](=O)[O-])s1)N1CCN(c2ccc(C(F)(F)F)cn2)CC1 | 2% | nt | -16% | -2% | ? | nt | -25% | 24%
O=C(NCC(c1ccco1)S(=O)(=O)c1cccs1)c1ccccc1 (stereo not drawn) | nt | 3% | nt | nt | nt | -0.9% | 15% | 2%[46.1 µM]
CN1C[C@@H]2C(c3ccc(Cl)nc3)C3(c4ccc(C#N)cc4)CC2(C3)[C@H]1c1ccccc1 (stereo partly drawn) | nt | -6% | 0% | -9% | -4% | -0.1% | ? | nt
CCc1ccc(S(=O)(=O)NCc2cccnc2)cc1 | nt | nt | -1% | -3% | -10% | nt | 10% | nt
O=C(/C=C/c1ccccc1)NCCS(=O)(=O)N1CCN(c2ccccc2F)CC1 | 4% | nt | -1% | 3% | nt | nt | -20% | -20%
CC(C)c1ccc(NC(=O)[C@H]2O[C@@H]3OC(C)(C)O[C@@H]3[C@H]3OC(C)(C)O[C@H]32)cc1 | 26%[46.1 µM] | 5% | nt | nt | nt | -1.5% | 6% | 10%[46.1 µM]
Cc1cc(C)n2nc(SCC(N)=O)nc2n1 | 0%[46.1 µM] | nt | 4% | 21% | 2% | nt | -5% | -14%
CCOC(=O)c1nonc1NC(C)=O | -2% | 19% | 5% | 8% | 12% | 1.3% | 29% | -2%
COc1cc2c(cc1OC)C(C(=O)Nc1ccccn1)C(c1cccnc1)N(C)C2=O (stereo not drawn) | 6%&6% | -9% | 3% | 15% | -3% | 2.3% | -27% | 8%
CCOc1ccccc1-c1nn2c(Cc3ccccc3)nnc2s1 | 17% | ? | -3% | -3% | -60% | -10% | 13% | -2%
